PABP polyA inh: PABP poly(A) RNA binding inhibitors, primary screen, biochemical, fluorescence polarization, uHTS. inhibition, % at 35 µM. hit rate 1% among 290,000;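 active = 50% or more with normal probe brightness, or confirmed in later tests; inconclusive = above 50% with abnormal brightness, or retests that disagree; inactive = below 50% or failed in later tests; about a fifth of its hits are not listed in these tables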;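 also: calls also rest on retests at 20 µM and on dose response follow-up; controls were probe without protein and protein plus probe with vehicle; some compounds called inactive have numbers as strong as hits; many hits fall short of the cut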
Target sequence (P11940 whole entry, looked up): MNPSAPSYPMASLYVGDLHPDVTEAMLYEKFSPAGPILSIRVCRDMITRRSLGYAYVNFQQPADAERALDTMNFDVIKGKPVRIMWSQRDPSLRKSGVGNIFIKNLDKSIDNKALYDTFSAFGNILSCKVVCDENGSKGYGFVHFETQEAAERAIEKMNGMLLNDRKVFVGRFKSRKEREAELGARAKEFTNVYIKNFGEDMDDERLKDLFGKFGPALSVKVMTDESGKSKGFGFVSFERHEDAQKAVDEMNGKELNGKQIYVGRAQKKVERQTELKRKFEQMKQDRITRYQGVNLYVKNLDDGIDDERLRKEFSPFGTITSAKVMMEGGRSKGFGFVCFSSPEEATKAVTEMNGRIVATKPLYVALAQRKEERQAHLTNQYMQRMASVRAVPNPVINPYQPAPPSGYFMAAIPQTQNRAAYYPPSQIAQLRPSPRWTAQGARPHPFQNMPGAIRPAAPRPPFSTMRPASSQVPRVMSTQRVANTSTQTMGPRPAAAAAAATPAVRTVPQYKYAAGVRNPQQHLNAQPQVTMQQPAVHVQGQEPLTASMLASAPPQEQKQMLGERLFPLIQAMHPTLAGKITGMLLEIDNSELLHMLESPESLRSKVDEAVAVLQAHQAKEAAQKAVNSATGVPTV
eIF4H inh: human eIF4H binding inhibitors, primary screen, translation initiation inhibitor project, biochemical, uHTS, fluorescence polarization; Eukaryotic translation initiation factor 4H (Homo sapiens), Q15056; eIF4H fluorescence polarization binding assay; inhibition, % at 35 µM; hit rate 0.94% among 290,000;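 active = 50% or more with normal probe brightness, or confirmed in later tests; inconclusive = above 50% with abnormal brightness, or retests that disagree; inactive = below 50% or failed in later tests; about a fifth of its hits are not listed in these tables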;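 also: calls also rest on retests at 20 µM and on dose response follow-up; 0% = protein and probe with vehicle and 100% = probe without protein; strong numbers were not always called active; many hits fall short of the cut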
Yeast UUG start: modulators of yeast start codon fidelity, primary screen, whole organism, S. cerevisiae, single point, plate reader; S. cerevisiae UUG-firefly luciferase reporter, luminescence/redox ratio; activity score, % at 18.7 µM; hit rate 0.13% among 350,000; AID 602363, 2012;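 active = replicate mean at a twofold rise or more, about +100% in these data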;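 also: firefly luciferase made from a UUG start codon reports start codon fidelity; reporter light over untreated wells divided by growth signal over untreated wells; some hits fall short of that in this replicate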
MT1-MMP act inh: blockers of MT1-MMP proenzyme processing, primary screen, HT1080 RFP-PRO-GFP cells, GFP/RFP fluorescence | Matrix metalloproteinase-14 (Homo sapiens), P50281 | GFP/RFP ratio fluorescence, overnight; percent of plate control window, DMSO zero | GFP/RFP ratio change, % at 20 µM | hit rate 0.061% among 360,000 | AID 651647, 2012;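 active = GFP/RFP ratio change of at least 30% with cell ATP level not reduced by more than half and red fluorescence within 50% of control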; also: strong numbers were not always called active
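Assay system: HT1080 cells carrying an RFP-PRO-GFP reporter | Dosing: Single dose of 20 µM compound, 1% DMSO final | Incubation: Cells overnight before dosing, compound overnight, 37 °C, 5% CO2 | Evaluation: GFP/RFP fluorescence ratio | Control set: DMSO and RFP-L50D-GFP cell wells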
CSC inhib: cancer stem cell viability inhibitors, primary screen, luminescence; cancer stem cell-like cells viability; inhibition, % at 7.5 µM; hit rate 1.1% among 300,000;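 active = mean at 75% or more and at least half the replicates too; inconclusive = mean and replicates disagree; tested in HMLE shEcad cells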;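 also: 0% = median of negative and 100% = median of positive control wells; the first replicate is given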
Env fusion inh: inhibitors of HIV-1 Env-driven cell-cell fusion, primary screen, HeLa-JRFL effector, CEM21 target cells, luciferase | inhibition, % at 12.3 µM | hit rate 1.1% among 360,000 | AID 651610, 2012;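 active = mean replicate inhibition score of at least 50 and every replicate individually at or above 50; inconclusive = only one of the two criteria met; inactive = mean below 50 and not all replicates reaching 50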;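 also: 0% = plate neutral controls and 100% = maraviroc near 300 nM; one replicate is shown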
Rce1 inhib: yeast Rce1p protease inhibitors, primary screen, biochemical, fluorescence, cell-free homogeneous; yeast membranes, quenched prenylated peptide cleavage fluorescence; calls only; hit rate 0.27% among 290,000; CAAX prenyl protease 2 (Saccharomyces cerevisiae (strain ATCC 204508 / S288c)), Q03530;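 active = fall in fluorescence gain of 50% or more versus controls, with final raw signal at or below 3038400; inconclusive = same 50% fall but final raw signal above 3038400; inactive = fall in fluorescence gain under 50%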;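 also: plate controls were neutral control wells for no effect and wells lacking membranes for full effect; tested at 10 µM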
MT1-MMP act inh RFP: recorded beside MT1-MMP act inh, whose call it bears; RFP signal change, %; measured here: RFP expression control read;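 0 = vehicle wells; hits needed this value within 50% of zero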
* hit, by the source's call; i = inactive; ? = inconclusive; · = not tested or not shown.

SMILES	PABP polyA inh	eIF4H inh	Yeast UUG start	MT1-MMP act inh	MT1-MMP act inh RFP	CSC inhib	Env fusion inh	Rce1 inhib
O=Nc1c(O)n(Cc2cccc(C(F)(F)F)c2)c2ccccc12	-2	-6	·	-5	-6	10	22	i
COc1ccc(C(C(=O)NC2CCCC2)N(C(=O)c2ccco2)c2ccccc2C(C)=O)cc1OC (centres undefined)	-2	3	-4	2	0	-3	10	i
CCN(CC)c1ccc2cc(C(N)=O)/c(=N\NC(=O)c3ccncc3)oc2c1	2	?	·	·	·	0	-31	i
Cc1ccc(NC(=O)/C(=C/C=C/c2ccccc2)NC(=O)c2ccccc2)cc1	6	-2	·	-5	-7	20	-8	i
O=C(Nc1ccc2c(c1)CCC2)c1cccc(S(=O)(=O)Nc2ccccc2Cl)c1	35	10	-9	-1	-6	39	10	i
O=C1NC(=O)c2cc(Br)cc3cccc1c23	4	9	·	-6	-3	5	-39	i
CC(=O)N(CN1C(=O)c2ccccc2C1=O)c1ccc2c(c1)oc1ccccc12	-1	3	·	0	6	-10	-8	i
O=C(O)CC1(CC(=O)Nc2ccc(Cl)cc2C(=O)c2ccccc2)CCCC1	3	-1	-4	2	3	5	-46	i
O=[N+]([O-])c1cccc2ccc(/C=C/c3ccc(Cl)cc3)nc12	4	-10	·	0	6	66	-16	i
Cc1csc(=O)n1CCC(=O)OCC(=O)Nc1ccc(N2CCOCC2)cc1	·	·	-11	2	3	·	-3	·
CN1OC[C@@H]2CN(C(=S)NCCc3ccccc3)[C@H](c3ccc(-n4ccnc4)cc3)C[C@@H]21	·	·	-21	6	5	·	1	·
CSC1=NCCN1CCOc1ccccc1	2	8	·	-3	-1	1	-1	i
N=c1n(Cc2ccccc2)c2ccccc2n1CC(O)c1ccccc1 (centres undefined)	-3	-7	-14	-17	-8	-15	-154	i
CCOC(=O)/C=C/c1cnn(-c2ccccc2)c1	4	4	-6	7	4	-15	5	i
COc1ccccc1NC(=O)COc1coc(CN2CCN(c3ccccc3)CC2)cc1=O	·	·	4	0	-3	-4	·	i
CSc1n[nH]c(N)c1S(=O)(=O)c1ccc(Cl)cc1	3	-3	-7	2	-1	-8	-8	i
Cn1c(NC(=O)C2CC2)cc(=O)n(C)c1=O	1	-3	-23	2	4	5	-11	i
CC(=O)Nc1ccc(/C=C(\C#N)C(N)=O)cc1	-8	-9	-18	3	2	-12	3	i
CCCC(C(=O)Nc1nccs1)c1ccccc1 (centres undefined)	9	3	-27	0	0	-10	·	i
CN(C1=NS(=O)(=O)c2ccccc21)c1ccc(OC(=O)c2ccncc2)cc1	4	0	·	-1	-2	-2	9	i
COc1ccc(S(=O)(=O)N2CC(C(=O)O)Oc3ccc(CC(=O)O)cc32)cc1 (centres undefined)	7	-7	-7	7	7	14	-15	·
O=C(NCCCN1CCCC1=O)Nc1ccc(Cl)cc1	·	·	-11	-1	-2	-13	?	i
Cc1cc(C(=O)CN2C(=O)NC3(CCCCC3)C2=O)c(C)n1-c1ccc2c(c1)OCO2	3	2	·	0	-1	·	11	i
O=C(c1oc(=O)c2ccccc2c1-c1ccccc1)N1CCOCC1	-5	-3	9	-12	0	6	·	i
O=C(Cc1ccccc1)Nc1ccccc1Sc1ccccc1	12	-4	-22	-6	-2	13	-12	i
COc1cccc(C2/C(=C(/O)c3ccc(C)cc3)C(=O)C(=O)N2Cc2ccco2)c1 (centres undefined)	-5	-2	·	1	3	0	17	i
Nc1nnnn1/N=C/c1ccccc1O	·	·	·	14	4	10	-8	i
COc1ccc(NC(=O)CSc2nnc(NC(=O)c3ccco3)s2)cc1	-10	-12	-21	0	1	·	7	i
COc1cccc(S(=O)(=O)Nc2ccc(C(=O)N3CCN(C(=O)c4ccco4)CC3)cc2)c1	-3	-4	·	-1	-6	20	-18	i
CC1CCN(S(=O)(=O)c2cccc(C(=O)N3CCN(c4ccc(F)cc4)CC3)c2)CC1	-12	-3	-7	1	-7	15	18	i
C=C1CCC[C@]2(C)C[C@H]3OC(=O)C(CNC(C)CC)[C@H]3CC12 (some centres undefined)	7	3	-11	-6	-4	6	23	i
COc1ccc(C2(O)CCN(CC(=O)Nc3nccs3)CC2)c(OC)c1	-6	2	-23	-2	-1	12	·	i
COc1ccc(/C=N\NC(=O)c2ccccc2Br)cc1COc1ccccc1	10	-8	-11	-5	-20	20	19	i
CCCCC(CC)CNC(=O)C(=O)C1C(=O)Nc2ccccc21 (centres undefined)	-2	1	·	-1	6	8	15	i
COCCNC(=O)c1onc(CSc2ccccc2C)c1C(=O)O	3	-6	-12	-1	1	5	-7	i
Cc1ccnc(NC(=O)CC(NC(=O)c2ccccc2Cl)c2ccccc2)c1 (centres undefined)	·	·	-10	-7	0	-6	-56	i
CCc1ccc(-c2cc(-c3n[nH]c(=S)n3CC)c3ccccc3n2)cc1	38	5	·	·	·	2	·	i
O=C1CC(N2CCN(c3ccc(F)cc3)CC2)C(=O)N1c1ccc2c(c1)OCO2 (centres undefined)	-4	-2	·	4	4	-10	-4	i
CCOc1ccc(/C=N/Nc2nncc(-c3ccccc3)n2)cc1OC	-9	-3	-20	9	1	-2	-10	i
Cn1cnnc1SCC(=O)NCCc1ccc(Cl)cc1Cl	-12	0	·	0	9	-11	-5	i

Reformatted as labelled records: part of the list above
Cc1cc(C(=O)CN2C(=O)NC3(CCCCC3)C2=O)c(C)n1-c1ccc2c(c1)OCO2
  PABP polyA inh: 3 | eIF4H inh: 2 | Yeast UUG start: · | MT1-MMP act inh: 0 | MT1-MMP act inh RFP: -1 | CSC inhib: · | Env fusion inh: 11 | Rce1 inhib: i

O=C(c1oc(=O)c2ccccc2c1-c1ccccc1)N1CCOCC1
  PABP polyA inh: -5 | eIF4H inh: -3 | Yeast UUG start: 9 | MT1-MMP act inh: -12 | MT1-MMP act inh RFP: 0 | CSC inhib: 6 | Env fusion inh: · | Rce1 inhib: i

Reformatted with values under each structure: part of the list above
Order of values: PABP polyA inh, eIF4H inh, Yeast UUG start, MT1-MMP act inh, MT1-MMP act inh RFP, CSC inhib, Env fusion inh, Rce1 inhib
Nc1nnnn1/N=C/c1ccccc1O
  ·, ·, ·, 14, 4, 10, -8, i
COc1ccc(NC(=O)CSc2nnc(NC(=O)c3ccco3)s2)cc1
  -10, -12, -21, 0, 1, ·, 7, i
COc1cccc(S(=O)(=O)Nc2ccc(C(=O)N3CCN(C(=O)c4ccco4)CC3)cc2)c1
  -3, -4, ·, -1, -6, 20, -18, i
CC1CCN(S(=O)(=O)c2cccc(C(=O)N3CCN(c4ccc(F)cc4)CC3)c2)CC1
  -12, -3, -7, 1, -7, 15, 18, i
C=C1CCC[C@]2(C)C[C@H]3OC(=O)C(CNC(C)CC)[C@H]3CC12 (some centres undefined)
  7, 3, -11, -6, -4, 6, 23, i
COc1ccc(C2(O)CCN(CC(=O)Nc3nccs3)CC2)c(OC)c1
  -6, 2, -23, -2, -1, 12, ·, i
COc1ccc(/C=N\NC(=O)c2ccccc2Br)cc1COc1ccccc1
  10, -8, -11, -5, -20, 20, 19, i

Next section.
SMILES	PABP polyA inh	eIF4H inh	Yeast UUG start	MT1-MMP act inh	MT1-MMP act inh RFP	CSC inhib	Env fusion inh	Rce1 inhib
CCOC(=O)C(C(=O)OCC)N(C#N)c1nc(C)cc(C)n1	20	-1	-8	2	1	-6	-6	i
CCOC(=O)N/N=C(\C)c1ccc(Oc2ncccn2)cc1	-6	-2	-8	2	2	-7	-5	i
CCN(CC)S(=O)(=O)c1ccc(Cl)c(C(=O)Oc2cccnc2)c1	10	29	·	0	2	-1	-19	i
CCN(CC)CCNC(=O)CCc1nn(C)c(=O)c2ccccc12	2	7	·	1	5	-13	·	i
CN(C)C(CNc1nnnn1-c1ccccc1)c1ccco1 (centres undefined)	11	22	-27	8	8	-4	-110	i
CCO[C@H]1OC(C(=O)NC2CC2)=C[C@@H](C2CC2)[C@@H]1CCCO	11	11	-4	-3	2	-13	-15	i
CC(NC(=O)CSCc1ccc(Br)cc1)c1ccccc1 (centres undefined)	-2	-3	12	1	1	6	2	i
Nc1n[nH]c(-c2ccccc2)c1-c1ccccc1	2	-3	-17	-2	-1	-15	·	i
Cn1c(=N)n(CC(=O)c2ccccc2)c2ccccc21	1	-4	-14	-1	4	-3	-102	i
Cc1nnc(SC(C)C(=O)Nc2nccs2)s1 (centres undefined)	-6	-2	·	1	6	-16	-9	i
O=C1CC(c2ccccc2)CC(O)=C1C=Nc1cccc(Cl)c1 (centres undefined)	11	-2	·	0	3	-1	17	i
Cc1ccc(Cc2c(C)nc3nc(SCC(=O)NCCCN4CCOCC4)nn3c2C)cc1	-3	-14	-8	-1	-1	-23	-7	i
CN(C)CCNC(=O)/C(=C/c1ccc(-c2cccc(Cl)c2)o1)NC(=O)c1ccccc1	5	-16	·	-2	-1	3	-16	i
O=[N+]([O-])c1ccc(Sc2ncccn2)c([N+](=O)[O-])c1	-3	2	-34	-6	-10	52	-29	i
C/C(=N\NC(=O)c1ccccc1F)c1ccc(C#N)cc1	-2	-10	·	6	7	4	-93	i
C=CCSC1=C(C#N)C(c2ccccc2C)CC(=O)N1 (centres undefined)	13	-12	5	-1	2	15	·	i
Cc1ccc(C)c(NC(=O)COC(=O)Cc2ccsc2)c1	-7	22	·	-1	1	-4	-33	i
CC1CCN(C(=O)CCNC(=O)Cn2cnc3sc4c(c3c2=O)CCCC4)CC1	-7	0	20	2	-1	-24	-6	i
COc1cccc(CSc2nc3ccccc3cc2C=O)c1	-7	3	-9	2	-6	-15	·	i
CCN(CC)S(=O)(=O)c1ccc(N2CCCC2)c(NC(=O)Cc2cc(OC)c(OC)c(OC)c2)c1	6	-4	-4	2	5	-11	97*	i
COc1cc(C)c(C(N)=O)c(OC)n1	4	6	·	-5	-2	11	-6	i
O=C(NCc1cccnc1)C(=O)NCC1OCCCN1S(=O)(=O)c1cc(F)ccc1F (centres undefined)	·	·	-10	1	5	·	1	·
COC(=O)c1ccccc1NC(=O)Nc1ccc2c(c1)OCO2	4	-10	-5	-2	1	3	-34	i
CCc1ccc(N(CC(=O)NCc2cccnc2)S(=O)(=O)c2ccccc2)cc1	2	-1	-4	-3	3	2	11	i
O=C1C(C=NCc2ccccn2)=C(O)c2ccccc21	-10	1	-28	0	0	1	·	i
CC1(C(=O)NC2CCCC2)CCC(=O)N1CCOc1ccccc1 (centres undefined)	·	·	-2	1	4	·	24	·
C[C@H](CO)N1C[C@H](C)[C@@H](CN(C)S(=O)(=O)c2cccs2)Oc2ccc(NS(=O)(=O)c3ccccc3)cc2C1=O	·	·	5	6	0	·	-6	·
O=C1CC(C(=O)N(c2ccccc2)C(C(=O)NC2CCCC2)c2ccncc2)CS1 (centres undefined)	12	6	-26	-1	1	-12	10	i
O=C(NCCCCNC(=O)C1CCCC1)C1CCCC1	-3	-7	-8	1	12	-10	-67	i

Assay outcomes as filed in PubChem BioAssay.
